Screening data: PubChem BioAssay, Center for Chemical Genomics, University of Michigan
CDC25B-CDK2 inh = human CDC25B-CDK2/CyclinA binding inhibition; HTRF CDC25B-CDK2/CyclinA binding, anti-His/anti-Flag; hits give high values; z-score (concentration not given with the values); actives 0.72% (n = 94,000); AID 1259370;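 also: score is relative to mean and SD of negative controls; strong numbers were not always called active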
TAR Tat displ = HIV-1 TAR-Tat binding disruption; HIV-1 TAR RNA, Tat peptide displacement FRET; hits give high values; z-score (no concentration beside the values); actives 0.6% (n = 100,000); AID 1259389;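 also: score is relative to mean and SD of negative controls; some compounds called inactive have numbers as strong as hits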
* = called active by the depositor; / = no result given.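 The calls were made as follows: active = z-score from 3 up in half or more of its runs; inactive = the rest.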

SMILES | CDC25B-CDK2 inh | TAR Tat displ
O=c1cc(CO)oc(C(Nc2ccccn2)c2cccc(Cl)c2)c1O (centres undefined) | 0.76 | /
CCOC(=O)C(C)c1ccc2cc(OC)ccc2c1 (centres undefined) | -1.5 | /
CC(=O)N1c2ccc(S(=O)(=O)N3CCN(C4CCCCC4)CC3)cc2CC1C (centres undefined) | / | 0.47
O=C(Nc1nnc(-c2ccc3c(c2)OCO3)s1)C1CCCCC1 | -4.4 | 1.8
COc1cc([N+](=O)[O-])c(C)cc1Sc1ccc(C)cc1 | -0.42 | /
CCn1c(C)ccc(-c2noc(CCC(=O)Nc3nc(C)cs3)n2)c1=O | -1.3 | -0.31
CCc1cc2c(NC3CCCCC3)ncnc2s1 | / | 0.39
Cc1c(Cl)cccc1-n1c(=O)c(C#N)cc2c(=O)n3cccc(C)c3nc21 | -1.3 | 2
CS(=O)(=O)n1cnc2ccccc21 | -1.4 | 1.7
Cc1csc2nc(CSc3nnc(NC(=O)C(C)C)s3)cc(=O)n12 | / | 0.08
O=C(O)c1ccccc1-c1nc(-c2cccnc2)no1 | 1.6 | -0.08
O=C(Nc1cc(F)ccc1F)c1cnn2c3c(cnc12)CCCCCC3 | / | 0.78
CN1C(=O)NC(c2cccc(Cl)c2)C2=C1CCCC2=O (centres undefined) | -1.1 | /
O=C(c1ccc2c(=O)n3c(nc2c1)CCCC3)N(Cc1ccco1)C1CCCC1 | / | 1.4
COCc1cnc2c(c1SCC(=O)Nc1nc(C)cs1)c(=O)n(C)c(=O)n2C | / | -0.16
CCOc1cccc(C2c3c(oc4ccc(C)cc4c3=O)C(=O)N2Cc2ccc3c(c2)OCO3)c1 (centres undefined) | -1 | 3
COc1cc(S(=O)(=O)n2cc(C)nc2-c2ccccc2)c(OC)cc1Cl | -0.61 | 0.04
Cc1cc(OC(=O)c2cc(-c3ccc4c(c3)OCCO4)on2)ccc1Cl | -1.1 | 0.5
CCCOC(=O)C1=C(C)Nc2nnnn2C1c1cc(Br)ccc1OC (centres undefined) | 2 | -6.8
O=C(OCc1cc(=O)n2ccsc2n1)c1ccccc1F | / | 0.62
Cc1ccc(Nc2nncc(=O)[nH]2)c(C)c1 | -1.8 | 0.84
O=C(O)Cn1ncc2c3ccccc3n(Cc3ccccc3F)c2c1=O | -0.54 | 0.73
CCOC(=O)c1noc2nc(C)nc(N3CCN(c4ccc(Cl)cc4)CC3)c12 | / | -0.21
Cc1nc2nc(-c3ccccc3)[nH]n2c(=O)c1C | -1.9 | 0.26
Cn1ncc2c(Nc3cccc(Cl)c3)nc(N3CCC(N4CCCCC4)CC3)nc21 | / | 2.1
CC(C(=O)N1CCN(Cc2ccccc2)CC1)N1CCN(Cc2ccccc2)CC1 (centres undefined) | -0.07 | /
COc1ccccc1N1CCN(S(=O)(=O)c2ccc(-c3ccc(=O)[nH]n3)o2)CC1 | / | 1.7
Cc1cccc(N2CCN(c3c(C)c(C)nc4ncnn34)CC2C)c1 (centres undefined) | / | 0.69
O=C(NC1CC1)C1CCN(c2nn3c(=O)c4c(nc3s2)CCCC4)CC1 | / | 2.7
CCc1nnc2c(NCCc3ccc(Cl)cc3)nc3ccccc3n12 | / | -0.31
COc1ccc(O)c(-c2cc(C(F)(F)F)nc(-c3ccccc3)n2)c1 | -1.1 | -0.47
Cc1cc(C)cc(Oc2c(C(F)(F)F)oc3cc(OCC(=O)O)ccc3c2=O)c1 | -0.52 | 2.2
CN(NC(=O)c1ccccc1F)c1ccc([N+](=O)[O-])cn1 | -1 | /
CC1CCCC(N(CCCNC(=O)c2cc3ccc4cccnc4c3[nH]2)Cc2ccco2)C1C (centres undefined) | / | 0.53
O=C(C1CCN(c2ncc(-c3ccc(F)cc3)cn2)CC1)N1CCC(N2CCCCC2)CC1 | / | 1.6
C=CCn1c(SCC(=O)OCC)nc2c(c1=O)C1(CCCC1)Cc1ccccc1-2 | -0.45 | 2.4
Cc1nn(S(=O)(=O)c2ccc(OC(C)C)cc2)c(C)c1S(=O)(=O)N1CCCC1 | / | 0.5
O=C(Nc1ccc2c(c1)OCCO2)N1CCc2c([nH]c3ccccc23)C1c1ccccc1F (centres undefined) | / | 0.91
COC(=O)c1cc(S(=O)(=O)Nc2ccc(Cl)cc2)c[nH]1 | / | 2.3
CCC1CCCCN1C(=O)CN1C(=O)c2ccccc2C1=O (centres undefined) | -0.2 | /
c1csc(C2=NN3COc4ccccc4C3C2)c1 (centres undefined) | 0.7 | /
CCc1cc2c3c([nH]c2cc1S(=O)(=O)N1CCN(c2ccc(F)cc2)CC1)CC(C)(C)CC3=O | / | 0.69
Cc1ccc(CN2C(=O)c3oc4ccccc4c(=O)c3C2c2cccc(O)c2)cc1 (centres undefined) | -1.2 | -0.74
CCOC(=O)c1sc(=S)n(-c2ccccc2F)c1N | / | 1.3
CCOC(=O)c1ccc2[nH]c3c(c2c1)CCCCC3=O | -4.1 | 0.37
O=c1cc(CSCc2ccco2)nc2sc(-c3cccs3)nn12 | -1.2 | -0.1
CC1CCCCC1NC(=O)C1CCCN1c1nnc(N2CCCC2=O)s1 (centres undefined) | -2.4 | 1.6
COc1ccc(NC(=O)N2CCn3cccc3C2C)c(OC)c1 (centres undefined) | / | -6.7
CCOc1ccc(-n2c(C)nnc2SCc2nc(-c3cc(OC)ccc3OC)no2)cc1 | -1.5 | 1.4
CCN(CC)C(=O)Cn1cc(SCC(=O)NC2CCCCC2)c2ccccc21 | / | 1.2

Structures above containing an aryl methoxy group, in the order listed:
SMILES | CDC25B-CDK2 inh | TAR Tat displ
CCOC(=O)C(C)c1ccc2cc(OC)ccc2c1 (centres undefined) | -1.5 | /
COc1cc([N+](=O)[O-])c(C)cc1Sc1ccc(C)cc1 | -0.42 | /
COc1cc(S(=O)(=O)n2cc(C)nc2-c2ccccc2)c(OC)cc1Cl | -0.61 | 0.04
CCCOC(=O)C1=C(C)Nc2nnnn2C1c1cc(Br)ccc1OC (centres undefined) | 2 | -6.8
COc1ccccc1N1CCN(S(=O)(=O)c2ccc(-c3ccc(=O)[nH]n3)o2)CC1 | / | 1.7
COc1ccc(O)c(-c2cc(C(F)(F)F)nc(-c3ccccc3)n2)c1 | -1.1 | -0.47
COc1ccc(NC(=O)N2CCn3cccc3C2C)c(OC)c1 (centres undefined) | / | -6.7
CCOc1ccc(-n2c(C)nnc2SCc2nc(-c3cc(OC)ccc3OC)no2)cc1 | -1.5 | 1.4

Some of these compounds in order of count of non-hydrogen atoms, smallest number first:
SMILES | CDC25B-CDK2 inh | TAR Tat displ
CCOC(=O)c1sc(=S)n(-c2ccccc2F)c1N | / | 1.3
CCN(CC)C(=O)Cn1cc(SCC(=O)NC2CCCCC2)c2ccccc21 | / | 1.2
CCOc1ccc(-n2c(C)nnc2SCc2nc(-c3cc(OC)ccc3OC)no2)cc1 | -1.5 | 1.4

Following part:
SMILES | CDC25B-CDK2 inh | TAR Tat displ
O=C(Nc1ccc(OCc2ccccc2)cc1)N1CCCN(c2c(Cl)cncc2Cl)CC1 | -2.1 | /
O=C(CSc1nc2c(c(=O)[nH]1)CCC2)Nc1ccc(F)c(Cl)c1 | -0.54 | 0.77
CCCN1CCN(c2nnc(-n3cccc3CNc3nccs3)s2)CC1 | / | 2.4
CCOc1cc2sc(N3CCC(C(=O)N4CCN(CC)CC4)CC3)nc2cc1Br | -0.49 | 0.68
COc1ccc(C)cc1NS(=O)(=O)c1cc(-c2cc(C)no2)ccc1C(C)C | / | 1
COc1ccc(NC(=O)CSc2nncn3c2cc2oc(C)cc23)cc1 | / | 2.9
CCN(CCO)c1cc(NC(C)C)c2c3c(onc13)-c1ccccc1C2=O | 0.53 | -0.77
COc1ccc(S(=O)(=O)NCCc2nnc3ccc(SCc4ccccc4Cl)nn23)cc1 | / | 2.3
Cc1cc(N2C(=O)c3ccccc3C2=O)n(C)n1 | 0.58 | /
CC(=O)N1c2ccc(S(=O)(=O)N3CCC(C(=O)N4CCCC(C)C4)CC3)cc2CC1C (centres undefined) | / | -0.7
O=C(C1CCN(c2ncnc3c2sc2cccc(F)c23)CC1)N1CCN(c2ncccn2)CC1 | -7.9 | /
CC1CN(S(=O)(=O)c2ccc(-n3cnnn3)cc2)CC(C)O1 (centres undefined) | 0.07 | 0.98
O=c1nc2c(-c3ccc(Cl)cc3)n[nH]n2c2ccc(Cl)cc12 | -0.04 | 1.1
O=C(CC1(O)C(=O)N(CCc2ccccc2)c2ccc(Cl)cc21)c1ccc(F)cc1 (centres undefined) | -0.83 | -0.7
Cc1ccc2[nH]c(CSc3nnc(-c4ccccc4)n3C)cc(=O)c2c1 | / | -0.64
CC1CCCCC1NC(=O)c1nn(C)c2c1COc1ccccc1-2 (centres undefined) | -1.2 | 1
CCC(=O)N1N=C(c2cccs2)CC1c1cn(-c2ccccc2)nc1-c1cccs1 (centres undefined) | -2.3 | -1.8
CCOC(=O)c1c(C)oc2nc(C)nc(NCCC3=CCCCC3)c12 | / | 0.23
CCOC(=O)c1c(C)[nH]c(C)c1S(=O)(=O)NCCCN1CCOCC1 | / | 0.47
O=S(=O)(NC1CCCCC1)c1ccc(S(=O)(=O)N(Cc2ccccc2)CC2CCCO2)cc1 (centres undefined) | 0.23 | 0.67
CC1=C(c2ccc(Cl)cc2)S(=O)(=O)N=C1N1CCC(N2CCCCC2)CC1 | 1.3 | -0.47
O=C(Cn1nnc2sc3c(c2c1=O)CCCC3)c1cccs1 | -1.4 | 0.09
CCOC(=O)c1cnn2c(C(F)(F)F)cc(-c3ccc(Br)cc3)nc12 | / | 1.5
CC(C)n1c(SCC(=O)Nc2ccccc2)nc2c(oc3ccccc32)c1=O | -0.34 | 0.26
O=C1c2ccccc2C(Nc2ccc(Cl)cn2)N1Cc1ccccc1Cl (centres undefined) | -0.82 | 0.91
CCC(C)C1N=C2c3ccccc3N=C(SC(C)C(=O)Nc3cc(OC)cc(OC)c3)N2C1=O (centres undefined) | / | 0.85
Cc1c(C(=O)NCCCN2CCCCC2C)sc2nc3n(c(=O)c12)CCCCC3 (centres undefined) | / | 2.3
CCCSc1ncc(Cl)c(C(=O)Nc2sc3c(c2C(=O)NCc2ccco2)CCC3)n1 | 2 | 0.61
Cc1c2cnn(-c3ccccc3)c(=O)c2c(C)n1C(C)C(=O)NCCCN1CCCC1=O (centres undefined) | -0.93 | -0.2
O=C(C1CC1)N1N=C(c2ccc(Br)cc2)CC1(O)C(F)(F)F (centres undefined) | -3.2 | /
Cc1nc2c(c(NCCc3ccccc3)n1)CCC2 | -1.4 | 0.53
CCCCN(Cc1cccs1)S(=O)(=O)c1ccc2c(c1)NC(=O)CCS2 | / | -0.39
CCOC(=O)c1sc(N2C(=O)c3oc4ccc(C)cc4c(=O)c3C2c2cccc(O)c2)nc1C (centres undefined) | 2.2 | 0.65
CNC(=O)c1c(NC(=O)c2nc3ccccc3s2)sc2c1CCC2 | / | 1.1
COc1ccc(OC)c(Nc2nc3ccccc3nc2-n2nc(C)cc2C)c1 | -0.49 | 0.55
CN(CC1CCCO1)S(=O)(=O)c1ccc(C(=O)Nc2nc3c(F)cc(F)cc3s2)cc1 (centres undefined) | / | 0.69
Cc1cc(C2CCCN2C(=O)c2cc(-c3ccc(F)cc3)no2)no1 (centres undefined) | / | -0.07
O=C1CCN(c2cc(Nc3ccc4c(c3)OCO4)c3c4c(onc24)-c2ccccc2C3=O)CC1 | 1.5 | 1.3
Cc1ccc(N2C(=O)Nc3ccccc3S2(=O)=O)cc1C | / | 1.5
COC(=O)C1C(=O)C2=C(CC1C)NC(C)=C(C(=O)OC(C)C)C2c1ccccc1OC (centres undefined) | -0.9 | -0.49
O=C(CCS(=O)(=O)c1cccc2nsnc12)Nc1ccc2c(c1)OCO2 | -0.73 | 2.3
CC(Sc1nc2ccc(Br)cc2[nH]1)C(=O)O (centres undefined) | 0.51 | /
CCOc1ccc(-c2ccc(NS(=O)(=O)c3ccc(OC)c(C)c3)cc2)nn1 | / | 2.5
Cc1ccc(NS(=O)(=O)c2ccc(CN3C(=O)c4cccnc4C3=O)s2)cc1N(C)C | / | -0.56
O=C(NC1CC1)c1ccc(NC(=O)c2nsc3ccccc23)cc1 | -3.1 | 2.2
CC1=C2CCCC2CC/C1=N\Nc1nc(-c2ccccc2)cs1 (centres undefined) | -2.2 | /
O=C1COc2cc(S(=O)(=O)CCC(=O)N3CCN(c4ccccc4)CC3)c(Cl)cc2N1 | / | 2.1
CC(=O)Nc1ccc([N+](=O)[O-])cc1C(F)(F)F | -1.8 | /
CC(=O)N(C(C)=O)c1c(C2=CCCCC2)c(C)nn1C | -1 | -0.84
Cn1nc([N+](=O)[O-])nc1Sc1ccccn1 | -0.54 | 0.87

(continued)
SMILES | CDC25B-CDK2 inh | TAR Tat displ
C=CCc1ccc(OC(=O)c2ccccc2)c(OC)c1 | / | 1.7
CCOC(=O)/C(C)=N/NC(N)=S | -1.9 | /
Cc1oc(/C=N/NC(=O)CSCc2ccc([N+](=O)[O-])cc2)cc1Br | -2.9 | /
COc1ccc(NC(=O)N2CC=C(c3c[nH]c4ccccc34)CC2)cc1OC | / | -2.8
COCCNCc1cccc(Oc2nnnn2-c2ccccc2)c1 | / | 1.5
CCCc1cc(C2CCCN2C(=O)c2cc(C3CCCCC3)no2)no1 (centres undefined) | / | 1.9
Cc1cc(C)c(-c2n[nH]c3c2C(c2ccccc2F)N(Cc2ccco2)C3=O)c(O)c1 (centres undefined) | 0.34 | 1.6
CCC(=O)NC(C)c1nc(-c2ccc(C(C)(C)C)cc2)no1 (centres undefined) | -1.8 | 2.2
